Vaccinia mCherry = qHTS for Stage-Specific Inhibitors of Vaccinia Orthopoxvirus: mCherry Reporter Primary qHTS; Vaccinia virus mCherry reporter infection, fluorescence; about a quarter of the inactives have no number; Potency, µM (titrated, usually from 36.5 µM), for the others: at the highest dose activity change, negative = inhibition, hits mostly inhibitors; 0.63% of 310,000 active; AID 720579, 2013; active = well fitted inhibition curve with a large enough effect; inconclusive = small, poorly fitted or top-dose-only effect; inactive = no such curve, though single readings can be large or run the other way; tested in A549 cells; note: nearly all actives have a fitted effect of over 35% in size; inactives centre near -10
Vaccinia Venus = qHTS for Stage-Specific Inhibitors of Vaccinia Orthopoxvirus: Venus Reporter Primary qHTS; Vaccinia virus Venus reporter expression, fluorescence; Potency, µM (highest dose often 36.5 µM), inactives show at the highest dose activity change, negative = inhibition, usual class: inhibitors; 0.46% of 330,000 active; AID 720580, 2013; active means well fitted inhibition curve with a large enough effect; inconclusive means small, poorly fitted or top-dose-only effect; inactive means no such curve, though single readings can be large or run the other way; tested in A549 cells; note: nearly all actives have a fitted effect of over 30% in size; inactives centre near -10
Active calls of the source: *; i = inactive; ? = inconclusive; nt = no result given; & = joins results of further samples; [ ] = dose if it differs, or a comment. % is set by controls: 0 for no effect and ±100 for the full control effect; potency is the fitted concentration of half-maximal effect.

SMILES | Vaccinia mCherry | Vaccinia Venus
Cc1ccc(-n2c(C)cc(/C=C3/C(=O)NC(=O)N(C)C3=O)c2C)cc1 | -12.4% | -12.0%
CCN(CC)CCCN1C=C2C(=O)C(C)(OC(=O)C3CCCC3)C(=O)C=C2C=C1c1ccsc1 (centres undefined) | -13.4% | 2.9%
Cc1ccc(OCCn2c(CCCO)nc3ccccc32)cc1 | -1.0% | -11.6%
Cn1cncc1C#Cc1c(C=O)[nH]c2ccccc12 | -12.6% | -5.2%
O=C(NC1CCN(C(=O)NCc2ccccc2)CC1)c1ccccc1 | 0.9% | -3.2%
CCN(CC)S(=O)(=O)c1ccc(C)c(NC(=O)CNCc2ccccc2OC)c1 | -0.2% | -14.7%
COc1ccc(CCNC(=O)C(=O)NCCOc2ccccc2)cc1OC | i | -17.4%
Cc1ccc(S(=O)(=O)N(C)CC(=O)OCC(=O)N2CCCC2=O)cc1 | -11.0% | -8.7%
O=[N+]([O-])c1ccc(Nc2ccc(N3CCOCC3)cc2)c([N+](=O)[O-])c1 | ? | -12.3%
C=CCC(C#Cc1ccccc1)N(C)C (centres undefined) | nt | -8.7%
CC[C@]12c3[nH]c4ccc(OC)cc4c3CCN1C(=O)C(CC(=O)NCc1ccc(OC)c(OC)c1)C[C@@H]2C(=O)N1CCN(C(=O)C2CC2)CC1 (some centres undefined) | i | 1.9%
O=C(CSc1n[nH]c(-c2ccncc2)n1)c1ccccc1 | -3.3% | -6.0%
CC1(C)CC(=O)C(CC2CCCCC2=O)C(=O)C1 (centres undefined) | i | -11.3%
COc1ccc(NC(=O)Nc2ccc3c(c2)C(=O)N([C@H](C)CO)C[C@H](C)[C@@H](CN(C)S(C)(=O)=O)O3)cc1 | -14.3% | 2.1%
NNC(=O)c1ccc(Cn2cc(Cl)cn2)cc1 | i | 1.8%
Cc1cc(C(=O)N/N=C/c2ccc([N+](=O)[O-])s2)n[nH]1 | ? | ?
Cn1c(Cc2ccccc2)nnc1SCC(=O)Nc1ccc(N2CCOCC2)cc1 | -15.0% | -1.7%
COc1cc(-c2nc(CN3CCN(CC(C)C)C(=O)[C@@H]3C)c(C)o2)ccc1F | i | -11.4%
COc1ccc(NC(=O)CN(C)S(=O)(=O)c2cccc3cccnc23)cc1 | 0.6% | 5.5%
O=C(Nc1ccccc1)O/N=C1\CCCCC1c1ccc([N+](=O)[O-])cc1[N+](=O)[O-] (centres undefined) | nt | -28.1%
Cc1ccc(NC(=O)c2ccc([N+](=O)[O-])o2)cc1S(=O)(=O)N1CCOCC1 | ? | ?
CCOC(=O)N1CCN(C(=O)CN(C)S(=O)(=O)c2ccc3c(c2)c(=O)n(C)c(=O)n3C)CC1 | -25.1% | -8.0%
CC1NC(=O)c2cc3ccccc3cc2-n2c1nc1cc(F)ccc1c2=O (centres undefined) | -7.3% | -21.2%
CN(C)Cc1cn(-c2ccccc2)nc1-c1ccccc1 | -11.8% | -25.3%
Cc1cccc(N(C)S(=O)(=O)c2nnc(NC(=O)C(C)Oc3ccccc3)s2)c1 (centres undefined) | -14.8% | -13.8%
COc1ccccc1NS(=O)(=O)c1cc2c(cc1Cl)NC(=O)CO2 | -15.9% | -9.6%
COc1cccc(Cn2c(C)c(CNCc3cccc(C)c3)c(C(=O)O)c2C)c1 | -2.0% | -3.9%
CC(O)CC(C(=O)NNc1ccccc1)C(=O)NNc1ccccc1 (centres undefined) | -24.4% | -0.1%
CCc1ccccc1NS(=O)(=O)c1ccc2c(c1)CCN2C(=O)C1CC1 | -5.2% | -11.5%
COC(c1ccccc1)c1nnc(CCC(=O)N(C)CCOc2ccccc2)o1 (centres undefined) | -12.9% | -16.8%
O=C(NCC(=O)N1CCCCC1)c1ccc(Cl)cc1Cl | -25.4% | -16.6%
COc1ccc(Cc2nc3ccc(C(=O)NCc4ccccc4C)cc3o2)cc1 | -12.5%[7.34 µM] | -7.0%[7.34 µM]
O=C(c1ccccc1)N1N=C(c2ccc(F)cc2)CC1c1ccc(F)cc1 (centres undefined) | i | -15.2%
Cc1ccc(CNC(=O)CC2Oc3ccccc3NC2=O)cc1 (centres undefined) | -15.5% | -12.2%
COc1ccc(Nc2nc(-c3cc4cccc(OC)c4oc3=O)cs2)cc1 | -11.6% | -14.3%
COc1ccc(N2C(=O)CSC23C(=O)N2c4c(cccc43)C(C)=CC2(C)C)cc1 (centres undefined) | -12.7% | -15.6%
Cc1n(C)c2cc(Cl)ccc2[n+]1Cc1ccccc1 | -12.7% | 0.9%
CCN1CCCC1CNC(=O)c1cc2c(-c3ccc(Cl)cc3)nn(C)c2s1 (centres undefined) | ? | ?
Cc1ccc(NC(=O)N2CCC(N3CCN(Cc4ccccc4)C(=O)C3=O)CC2)cc1Cl | 4.7% | -1.1%
Fc1cccc(Cl)c1Cn1nnc(-c2ccc3c(c2)OCO3)n1 | -8.5% | -11.4%
CCN(CCCCCN(C)C)Cc1cc2ccccc2o1 | -22.0% | -13.3%
Cc1ccc(NC(=O)CCc2c(C)nn(-c3ccc(N4CCOCC4)nn3)c2C)cc1F | -2.5%&-3.9% | -12.1%&-15.9%
COc1ccc(C2/C(=C(/O)c3ccccc3)C(=O)C(=O)N2CCN2CCOCC2)c(OC)c1 (centres undefined) | -18.9% | -8.5%
O=C(c1cccc(Br)c1)N1CCN(c2cnn(-c3ccccc3)c(=O)c2Cl)CC1 | i | -15.0%
Cc1ccc(Cl)cc1-n1ncc2c(NCc3ccc(F)cc3)ncnc21 | -15.2% | -17.9%
Cc1oc(C)c(C(=O)Nc2ccc(CC(=O)O)cc2)c1C(=O)Nc1ccc(CC(=O)O)cc1 | -11.2% | -4.8%
CC(Sc1nnc(-c2cc3ccccc3o2)n1-c1ccccc1)C(=O)O (centres undefined) | nt | -26.6%
Cc1ccc2cc(CCNC(=O)C(=O)c3c(C)[nH]c4ccccc34)c(=O)[nH]c2c1 | i | -13.9%
COc1ccc(C2CC(c3cccs3)=NN2C(=O)CSc2nncs2)cc1OC (centres undefined) | -8.5% | -9.4%
Cn1nc(C(=O)OCC(=O)N(Cc2ccccc2)C(C)(C)C)c2ccccc2c1=O | i | -9.1%
CC1=NN(C(=S)Nc2ccccc2)C(c2ccccc2)C1 (centres undefined) | -7.5% | 2.9%
OC(c1ccccc1)(c1nc(-c2csc3ccccc23)cs1)C(F)(F)F (centres undefined) | -27.6% | -2.7%
O=C(Nc1cccc(S(=O)(=O)N2CCCC2)c1)[C@@H]1O[C@H](CO)[C@@H](O)[C@H]1O | 0.6% | -1.8%
CCSc1nc2nccnc2c(=O)[nH]1 | -14.4% | -3.2%
CC1CCc2[nH]c3ccc(C(=O)N4CCCC(C(F)(F)F)C4)cc3c2C1 (centres undefined) | -26.8% | -29.3%
CCc1cccc(NC(=O)c2nnn(Cc3ccc(SC)cc3)c2N)c1 | -11.5% | -11.0%
CC(=O)Nc1ccc(S(=O)(=O)Nc2ccc3c(c2)OCO3)cc1 | -11.9% | -13.7%
Cc1ccc(Nc2c(-c3ccc(C)o3)nc3ccccn23)cc1 | -16.9% | -13.2%
O=S(=O)(NN1CCOCC1)c1cc(Cl)cc(Cl)c1O | -10.3% | -5.5%
O=C(Nc1nnc(-c2ccccc2)o1)c1ccc(Cl)cc1 | -6.0% | -5.6%

Compounds listed so far that have a thiophene ring, fused or not (five):
SMILES | Vaccinia mCherry | Vaccinia Venus
CCN(CC)CCCN1C=C2C(=O)C(C)(OC(=O)C3CCCC3)C(=O)C=C2C=C1c1ccsc1 (centres undefined) | -13.4% | 2.9%
Cc1cc(C(=O)N/N=C/c2ccc([N+](=O)[O-])s2)n[nH]1 | ? | ?
CCN1CCCC1CNC(=O)c1cc2c(-c3ccc(Cl)cc3)nn(C)c2s1 (centres undefined) | ? | ?
COc1ccc(C2CC(c3cccs3)=NN2C(=O)CSc2nncs2)cc1OC (centres undefined) | -8.5% | -9.4%
OC(c1ccccc1)(c1nc(-c2csc3ccccc23)cs1)C(F)(F)F (centres undefined) | -27.6% | -2.7%

The list continues.
SMILES | Vaccinia mCherry | Vaccinia Venus
CC1CCc2c(sc3nc(CSc4n[nH]c(N)n4)[nH]c(=O)c23)C1 (centres undefined) | ? | -19.4%
Fc1ccccc1N1CCN(c2nc3ccccc3c3nc(-c4ccccc4)nn23)CC1 | -12.9% | -4.3%
Cc1ccc(SC(C)C(=O)N2CCN(c3ccccc3)CC2)cc1 (centres undefined) | -7.2% | 3.6%
Cc1ccc(CSCC(=O)NCc2ccc3c(c2)OCO3)cc1 | -9.3%[7.34 µM] | -2.9%[7.34 µM]
c1cc(SSc2ccncc2)ccn1 | i | -28.6%
CCC(C)OC(=O)C1=C(C)NC(=O)NC1c1ccc(F)cc1 (centres undefined) | -11.4% | -4.6%
Brc1ccc2[nH]cc(C=NN3CCCCCC3)c2c1 | i | -1.1%
O=C(/C=C/c1cn(CC(O)CN2CCCCCC2)c2ccccc12)c1cccs1 (centres undefined) | -26.5% | -22.2%
COc1ccc(NCc2cc3cc4c(cc3n(CC(=O)Nc3ccccc3)c2=O)OCO4)cc1 | -13.7% | -7.2%
O=C(NCCN1CCOCC1)c1cnn(-c2ncc3c(n2)-c2ccccc2CC3)c1C1CC1 | -11.7% | -7.6%
Clc1ccc(-c2nnc(COc3ncnc4sccc34)o2)cc1 | -9.4% | -5.6%
CC(NC(=O)CN(C1CCCCC1)S(C)(=O)=O)c1ccccc1 (centres undefined) | i | -12.6%
COc1cc2c(cc1OC)[C@@H]1Cc3cc4c(cc3[C@H](C2)N1C)OCO4 | -5.5% | -13.8%
O=C1C[C@H]2C=CCc3cccc(c32)CN1Cc1ccccc1 | -0.4% | -7.0%
C1CNC2NCCNC2N1 (centres undefined) | -9.7% | -3.5%
Cc1ccc2oc(-c3cccc(NC(=O)c4cccc5c(Br)cccc45)c3)nc2c1 | i | 3.4%
COc1ccc(CC(=O)Oc2ccccc2C)cc1 | -13.2% | 1.4%
CC(C)(C)C(=O)NC(=C(Cl)Cl)P(=O)(O)O | i | -3.1%
Cc1ccc(-c2nnc(-c3ccc(NC(=O)c4ccco4)cc3)o2)cc1 | nt | 0.5%
CCCn1c(N)c(N2CCCCC2)c(=O)n(CC(=O)Nc2ccc(C(C)=O)cc2)c1=O | -6.5% | 3.9%
COc1cc(CN=Cc2c(O)n(Cc3ccccc3)c(=S)[nH]c2=O)cc(OC)c1 | -16.0% | ?
Clc1ccc(-n2ncc3c(NCCN4CCOCC4)ncnc32)cc1 | nt | ?
CCCn1c(N)c(N(CCOC)C(=O)c2ccc(Cl)c([N+](=O)[O-])c2)c(=O)[nH]c1=O | -3.3% | -7.6%
CN(C)CCCN1C(=O)c2cccc3c([N+](=O)[O-])ccc(c23)C1=O | i | 137.0%[activator]
COc1ccc(N(CC(=O)NC2CCCC2)C(=O)c2ccc(C)s2)c(OC)c1 | i | -8.6%
COCCNC(=S)c1ccc(OC)cc1 | nt | -11.1%
CCC(C)NC(=O)[C@H](CSCc1ccccc1)N1Cc2ccccc2C1=O (some centres undefined) | i | -2.3%
COC(=O)c1ccc(NC(=O)COc2ccc(N(C)S(=O)(=O)c3ccc(C)cc3)cc2)cc1 | -9.1% | -23.3%
Cc1[nH]c2ccccc2c1N=Nc1cc(C(=O)O)cc(C(=O)O)c1 | -2.6% | -15.6%
COc1ccccc1CN1CCNC(=O)C1CC(=O)NCc1cn(C)nc1C (centres undefined) | -5.3% | -10.0%
O=C(c1csc2c1CCCC2)N1CCN(c2ccc(F)cc2)CC1 | -20.0% | -16.5%
COCCNC(=O)c1cc(C)ccc1C | 9.3% | 0.0%
COC(=O)c1cccc(OCC(O)Cn2ccnc2)c1 (centres undefined) | nt | -15.6%
Cc1ccc(C)c(N2CCN(C(=O)Cn3nc(Cc4cccnc4)c4ccccc4c3=O)CC2)c1 | i | -17.8%
CCCCOc1cccc(NC(=O)c2cccc(C(=O)Nc3cccc(OCCCC)c3)c2)c1 | 6.5%[7.34 µM] | -1.2%[7.34 µM]
O=C(C1=C[C@@H](c2csc3ccccc23)C[C@@H](OCCCCO)O1)N1CCN(Cc2ccc3c(c2)OCO3)CC1 | ? | ?
COc1ccc(C)cc1NC(=O)NCc1ccco1 | -2.7% | -3.2%
Cc1ccc(S(=O)(=O)N2CCC(=O)CC2c2ccccc2)cc1 (centres undefined) | i | -0.3%
C/C(=N\Nc1nc2ccccc2c(=O)n1O)c1ccco1 | i | -6.9%
CCCCC(C)C(OC(=O)CC(CC(=O)O)C(=O)O)C(CC(C)CC(O)CCCCC(O)CC(O)C(C)N)OC(=O)CC(CC(=O)O)C(=O)O (centres undefined) | -5.8% | -0.3%
COc1ccc(C(=O)COC(=O)c2n[nH]c3ccccc23)c(OC)c1 | -18.4% | -8.9%
CC(=O)NC(=S)Nc1ccc2oc(-c3cc(F)c(F)cc3Cl)nc2c1 | -3.4% | 7.8%
O=S(=O)(c1cccc(-c2n[nH]c(=S)n2C2CCCC2)c1)N1CCOCC1 | -15.8% | -9.1%
C[n+]1ccccc1/C=C/c1c(F)cccc1F | ? | -15.0%
Cc1cc(C)n(-c2ccc(C(F)(F)F)cc2[N+](=O)[O-])n1 | -2.3% | 2.8%
COc1ccc(S(=O)(=O)N2CCOCC2)cc1NC(=O)COc1ncnc2ccccc12 | -10.8% | -26.7%
COc1cc(C(=O)NN(CCC#N)C2=NS(=O)(=O)c3ccccc32)cc(OC)c1OC | -25.2% | 1.9%

By substructure: those above containing a tert-butyl group
SMILES | Vaccinia mCherry | Vaccinia Venus
Cn1nc(C(=O)OCC(=O)N(Cc2ccccc2)C(C)(C)C)c2ccccc2c1=O | i | -9.1%
CC(C)(C)C(=O)NC(=C(Cl)Cl)P(=O)(O)O | i | -3.1%

Screening data: PubChem, National Center for Advancing Translational Sciences (NCATS)
